Screening results as filed in PubChem.
AmpC inh no det = Promiscuous and Specific Inhibitors of AmpC Beta-Lactamase (assay without detergent); AmpC nitrocefin hydrolysis, absorbance 480 nm, no detergent; potencies from a single point are estimates; P00811; AID 585, 2007; 1.8% of 71,000 active; Potency, µM (highest dose often 28.7 µM), for inactives: top-dose activity change, negative = inhibition; active = falling curve, for most hits resting on a single point; inconclusive = weak or doubtful change; inactive = flat or rising curve; also: % of control where 0% means no effect; about half of the hits show no inhibition at the top dose; a quarter of the inactives give rising signals
Target sequence (P00811 whole entry, looked up): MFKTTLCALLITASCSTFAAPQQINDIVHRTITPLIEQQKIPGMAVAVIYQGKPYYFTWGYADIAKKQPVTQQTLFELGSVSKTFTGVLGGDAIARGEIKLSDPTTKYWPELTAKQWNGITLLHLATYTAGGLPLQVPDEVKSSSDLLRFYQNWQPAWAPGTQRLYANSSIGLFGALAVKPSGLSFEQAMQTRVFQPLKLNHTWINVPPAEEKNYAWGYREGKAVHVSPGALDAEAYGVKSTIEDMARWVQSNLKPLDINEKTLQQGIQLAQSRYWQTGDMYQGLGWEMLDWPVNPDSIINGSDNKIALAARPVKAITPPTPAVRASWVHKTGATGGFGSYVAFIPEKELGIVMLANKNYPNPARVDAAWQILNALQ
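AmpC, 20 mM phosphate pH 7.0; 15 min cpd preinc, RT; start with nitrocefin (800 uM stock); A480 kinetic read, 20 s intervals, 4 min. No-enzyme wells = negative control.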
Starred values were filed as active, the others as inactive; ? = inconclusive; & = joins results of further samples; [ ] = remark or other dose. Potency is read from the fitted curve at half-maximal effect. A portion of the library (hit frequency here may not be typical).

SMILES | AmpC inh no det
CCN1C(=O)CC(C(=O)NC)SC1=Nc1cc(Cl)c(O)c(Cl)c1 (centres undefined) | -9%
Cc1ccc(Cn2c(-n3nc(C)cc3C)nc3c2c(=O)[nH]c(=O)n3C)cc1 | 32%
O=C(Nc1cccc2c1C(=O)NC2=O)c1ccc(S(=O)(=O)N2CCCC2)cc1 | -4%
CCCn1c(C)cc(=O)c2cc(NC(=O)c3ccccn3)ccc21 | 48%
CCN(CC)c1nc(C#N)cc(-c2ccc(OC)cc2)n1 | -4%
Cc1ccn2c(NC3CCCCC3)c(C)nc2c1 | -1%
CC(=O)NC1C(=O)Nc2c1cccc2C(F)(F)F (centres undefined) | -2%
O=C(NCc1ccncc1)c1cnccn1 | 0%
Cn1c(CNc2nc3ccccc3n2CCN2CCCCC2)nc2ccccc21 | 18%
Cn1nnc(NC(=O)CSc2ccc(Cl)cc2)n1 | -1%
O=c1c2cc(N3CCOCC3)ccc2[nH]c(=S)n1CCCN1CCCCC1 | 0%
Cn1nnnc1SCc1csc(Nc2ccccc2)n1 | -24%
CS(=O)(=O)Nc1cccc(-c2cc(Nc3ccccc3)ncn2)c1 | -2%
Cc1oc2nc(SCCCC(=O)NCCO)nc(N)c2c1C | -8%
CCOC(=O)CCCCC(=O)c1[nH]c(=O)[nH]c1CSc1nc2ccccc2[nH]1 | 9%
CCc1nc(SCc2cccnc2)[nH]c(=O)c1C | 4%
CCc1cc(-c2[nH]ncc2-c2ccc3c(c2)OCO3)c(O)cc1O | -23%
Cn1cnnc1SCCC(=O)Nc1ccccc1 | -16%
O=C(CSc1nnc(Cc2cccs2)n1Cc1ccco1)Nc1cc(Cl)cc(Cl)c1 | -5%
CCOC(=O)c1cc(C#N)c(N)nc1C | -2%
Cc1c(C#N)c2ccccc2n1CC(=O)O | 1%
CCOC(=O)c1ccc(N2C(=O)CC(N3CCC(O)(c4ccc(Cl)cc4)CC3)C2=O)cc1 (centres undefined) | 26%
CC(=O)NC(Cc1ccc(C)cc1)C(=O)NC1CCN(C(=O)c2cnccn2)CC1 (centres undefined) | -3%
CCc1nnc(NC(=O)CSc2nnc3scc(-c4ccc(C)cc4)n23)s1 | 2%
CCCCC(=O)Nc1cc(NC(=O)CCCC)cc(C(=O)O)c1 | 0%
CCN(CC)CCCCn1c(-c2ccccc2)nc2c(NC3CCCCC3)nc(C)nc21 | 106%
CCn1c(SCC(=O)N2CCC(C(N)=O)(N3CCCCC3)CC2)nc2ccccc2c1=O | 47%
COC(=O)C(O)(c1ccc(N(C)S(=O)(=O)c2ccccc2)cc1)C(F)(F)F (centres undefined) | -5%
N#Cc1cccc(-c2nc3cnc(Oc4cccc(Cl)c4)nc3n(C3CC3)c2=O)c1 | 32%
COc1ccc(CNC(=O)c2csnn2)cc1 | -12%
CSc1ncccc1C(=O)OCn1nnc2ccccc2c1=O | 4%
CN1C(=O)CSc2ccc(NC(=O)N3CCN(c4ccccn4)CC3)cc21 | -3%
O=C(C1CCN(Cc2ccccc2)CC1)N1CCCC1 | -6%
COC(=O)Cc1[nH]nc2c1C1(C(=O)N(Cc3ccccc3)c3ccccc31)C(C#N)=C(N)O2 (centres undefined) | 9%
COc1ccc(C2N(c3ccc(F)cc3)C(=O)C3CCCN32)cc1 (centres undefined) | -2%
COCc1nnc(NS(=O)(=O)c2ccc(C)cc2)s1 | -10%
CN(C)c1ccc(CN(C)C2CCCCC2)cc1 | -9%
CC1=C(C(=O)OC(C)C)C(c2ccncc2)n2ncnc2N1 (centres undefined) | -1%
CCOc1ccc2nc3ccc4[nH]onc4c3c2c1 | 0%
O=C(NCc1ccc2c(c1)OCO2)C1CCN(C(=O)Nc2ccc(Cl)cc2)CC1 | -23%
COc1ccc(S(=O)(=O)N2CCC(C(=O)NCCC3=CCCCC3)CC2)cc1OC | 89%
COc1ccc(S(=O)(=O)N2CCCC(C(=O)N3CCCCCC3)C2)cc1 (centres undefined) | 39%
CSc1nnc2n(-c3ccc(C)cc3)c(=O)c3c4c(sc3n12)COC(C(C)C)C4 (centres undefined) | 41%
CNC(=O)[C@H](C)/C=C/C(NC(=O)OCc1ccccc1)c1ccc(C(=O)OC)cc1 (some centres undefined) | 99%
CCC(=O)c1cc(F)c(N2CCN(S(=O)(=O)c3ccc(C)cc3)CC2)cc1C | 12%
CCn1c(=O)cc(OCC(=O)N(C)C2CCCCC2)c2ccccc21 | 47%
O=C(CC12CC3CC(C1)CC(CC(=O)N1CCCC1)(C3)C2)N1CCCC1 | ?
CC(=O)c1c(N2CCCCC2)nc(=S)n(-c2ccccc2)c1C | 5%
COc1ccc(NC(=O)CC2SC(=NCc3ccccc3OC)NC2=O)cc1 (centres undefined) | 26%
CCOC(=O)CSC(C)C(=O)Nc1nnc(C(C)C)s1 (centres undefined) | -14%
O=c1c2cn[nH]c2[nH]c(=S)n1-c1ccccc1F | -3%
COc1ccc(OC)c(-c2cc(C(=O)NCc3ccco3)no2)c1 | -8%
COc1ccc(Nc2nc(N)nc(CN3CCN(c4ccccn4)CC3)n2)cc1 | 42%
CC(=O)C1=C(O)C(=O)N(Cc2cccnc2)C1c1ccccc1 (centres undefined) | -7%
Nc1nc2ccc(N3CCOCC3)cc2s1 | -12%
O=C(NCC1CCCO1)c1cccs1 (centres undefined) | 1%
CC(C)NC(=O)CCNC(=O)c1ccc(F)cc1 | -5%
COc1ccc(CNC(=O)CSc2nnnn2-c2ccc(O)cc2)cc1 | -7%
O=C(O)CCCC(=O)Nc1ccccc1-n1ccnc1 | -23%
CN1C=CC=C/C1=C1\SC(=S)N(C2CCCCC2)C1=O | 19%

Continuation.
SMILES | AmpC inh no det
Cc1cc(C)nc(NS(=O)(=O)c2ccc(NC(=O)Cn3c(=O)oc4ccccc43)cc2)n1 | 4µM*[single pt active]
Cc1cc(=O)n(CCc2ccccc2)c(O)c1C#N | -3%&-11%
COc1ccc(CNC(=O)Cn2cc3c(n2)CCCCC3)cc1 | 24%
Cc1cc(OCc2nn[nH]n2)c2c(C)c(CC(=O)O)c(=O)oc2c1 | -6%
Cc1cc(-c2csc(NC(=O)c3cc4ccccc4o3)n2)c(C)n1C | -8%
Nc1ccc(Nc2ccccc2N)cc1 | -12%
O=C(c1ccccc1-c1nc(-c2ccc(Cl)cc2)no1)N1CCCC1 | 115%
CCc1ccc(NC(=O)CSc2nnc(Cc3cccn3C)n2-c2ccc(F)cc2)cc1 | 99%
CCOC(=O)N1CCN(C(=O)Cn2c(C)cc3ccccc3c2=O)CC1 | -12%
COc1ccc(OC)c(S(=O)(=O)n2cnc3cc(C)c(C)cc32)c1 | 133%
CCCSc1nnc(CN2CCOCC2)n1C | -13%
Oc1ccccc1OCc1nc2ccccc2s1 | -6%
O=C(Nc1nc(-c2nc3ccccc3s2)cs1)C1COc2ccccc2O1 (centres undefined) | 5%
OC[C@H](S)CS | -12%[5.75 µM]
COc1ccc(OC)c(NC(=O)Cn2c(-c3ccc(Cl)cc3)noc2=O)c1 | -4%
O=C(CNS(=O)(=O)c1ccc(Br)s1)N1CCCC1 | 10%
Cc1ccc2c(c1)sc1ncc(NC(=O)c3ccccc3)c(=O)n12 | 7%
O=S(=O)(NC1CC2CCC1C2)c1ccc2c(c1)OCCO2 (centres undefined) | 116%
CS(=O)(=O)N1CCN(C(=O)Cc2ccccc2)CC1 | 9%
CCCSc1nnc(Cn2c(=O)sc3ccccc32)n1C | 4µM*[single pt active]
CCOC(=O)Cc1csc(NC(=O)c2c(-c3ccccc3)noc2C)n1 | 24%
O=C(O)c1cc(NC(=O)C2CCCO2)cc(NC(=O)C2CCCO2)c1 (centres undefined) | -8%
N#Cc1cc2ccccc2nc1SCc1cccnc1 | 8%
O=C(NC1CCCCC1)n1c(=O)oc2cc(S(=O)(=O)N3CCCCC3)ccc21 | -14%
CC(C)(C)NC[C@H](O)c1ccccc1Cl | -9%
O=C(CC(NS(=O)(=O)c1ccc(Cl)cc1)c1ccco1)NC1CCCC1 (centres undefined) | -2%
Cc1nnc(Nc2ccccn2)c2ccccc12 | -12%
CC1(C)Cc2ccccc2-c2nnc(SCc3ccc(C#N)cc3)n21 | 35%
CN(C(=O)C12CC3CC(CC(C3)C1)C2)C1CCS(=O)(=O)C1 (centres undefined) | -5%
COc1ccc2cc(CN(CC3COCCO3)S(=O)(=O)c3ccccc3)c(=O)[nH]c2c1 (centres undefined) | 60%
O=S(=O)(CCCc1ccccc1)c1ncn[nH]1 | 11%
CCC1=C/C(=C\c2ccc3c(c2)OCO3)C(=O)S1 | ?
Cc1cc2ccccc2c(=O)n1CC(=O)Nc1ccc2c(c1)OCCO2 | -20%
Cc1nc2ccccc2c2oc(C(=O)NCCCN3CCCC3=O)cc12 | 29%
O=C(Nc1cccc(C(F)(F)F)c1)C1CCCN(c2ncccn2)C1 (centres undefined) | 22%
CC(C)(C)n1ncc2c(=O)n(CC(=O)Nc3ccc4c(c3)OCCO4)cnc21 | 22%
CCC(C)NC(=O)c1cn(C)c(=O)c2cc(OC)c(OC)cc12 (centres undefined) | 16%
Cc1ccc2nsnc2c1N(S(C)(=O)=O)S(C)(=O)=O | -2%
COc1ccccc1NC(=O)C1CCCN(S(=O)(=O)c2cccc3nsnc23)C1 (centres undefined) | 29%
c1ccc(-c2nc(CSc3nnnn3-c3ccccc3)cs2)cc1 | -12%

Rewritten with each value named: 4 of the compounds above
Compound: Cc1cc2ccccc2c(=O)n1CC(=O)Nc1ccc2c(c1)OCCO2
  AmpC inh no det = -20%

Compound: O=C(O)c1cc(NC(=O)C2CCCO2)cc(NC(=O)C2CCCO2)c1 (centres undefined)
  AmpC inh no det = -8%

Compound: O=C(CC(NS(=O)(=O)c1ccc(Cl)cc1)c1ccco1)NC1CCCC1 (centres undefined)
  AmpC inh no det = -2%

Compound: Cc1nc2ccccc2c2oc(C(=O)NCCCN3CCCC3=O)cc12
  AmpC inh no det = 29%

Additional records
SMILES | AmpC inh no det
CC1CCN(C(=O)CSc2nc3ccccc3[nH]2)CC1 | 6%
COc1ccc(C(=O)Nc2ccc3c(c2)OCO3)cc1OC | 0%
CC(C)=CC(=O)OCC(=O)Nc1nc(C)c(Cl)cc1Cl | 2%
CN(CC(CC(=O)Nc1nncs1)c1ccccc1)S(=O)(=O)c1ccccc1 (centres undefined) | 4µM*[single pt active]
CCOc1ccc(N=CC2=C(O)CC(C)(C)CC2=O)cc1 | 0%
CN(C)c1ncc2nc(-c3cccs3)c(=O)n(C3CC3)c2n1 | 13%
CC(=O)/C(C(=N)N1CCN(C(c2ccccc2)c2ccccc2)CC1)=C(\C)O | 71%
COc1ccc(S(=O)(=O)N(CC(N)=O)C2CCCCC2)cc1Cl | 38%
CC(=O)c1c(N2CCCCC2)nc(=S)n(Cc2ccccc2)c1C | 21%
Cn1c(=O)[nH]c(=O)c2c1nc(CN1CCOCC1)n2Cc1ccc(F)cc1 | 90%
C[C@@H]1NCCc2cc(O)c(O)cc21 | -7%[12.8 µM]
COc1cc2c(cc1OC)CN(C(=O)c1cc(S(=O)(=O)N3CCOCC3)ccc1Cl)CC2 | 29%
CC(C)CC(=O)C[C@H](O)C(Cl)(Cl)Cl | 8%[5.75 µM]
Cc1cc(C(=O)CSc2nc3ccccc3n2CCC#N)c(C)n1Cc1cccs1 | 16µM*
Cc1ccnc(N2CCCC(C(=O)Nc3nnc(C)s3)C2)n1 (centres undefined) | 4%
CN(C(=O)COc1cc(=O)n(C)c2ccccc12)c1ccc(Cl)cc1 | 76%
Cc1ccc(-c2nnc(N(C)C(=O)c3ccncc3)s2)cn1 | 11%
CCCN1C2CCCC1CC(NC(=O)NC1CCCCC1)C2 (centres undefined) | 1%
CCC(=O)N1CCc2cc(S(=O)(=O)NC(CC(C)C)C(=O)N3CCc4ccccc43)ccc21 (centres undefined) | 64%
COc1ccc(OC)c(C(=O)c2coc3ccc(OC)cc23)c1 | 44%

Random excerpt: four entries already listed
SMILES | AmpC inh no det
CC(C)CC(=O)C[C@H](O)C(Cl)(Cl)Cl | 8%[5.75 µM]
CC(C)=CC(=O)OCC(=O)Nc1nc(C)c(Cl)cc1Cl | 2%
CN(C(=O)COc1cc(=O)n(C)c2ccccc12)c1ccc(Cl)cc1 | 76%
CC1CCN(C(=O)CSc2nc3ccccc3[nH]2)CC1 | 6%

Next section.
SMILES | AmpC inh no det
COc1ccc(NC(=O)CCn2nc(C)cc2C)cc1 | 7%
Cc1ccc(Cl)cc1NS(=O)(=O)c1c(C)[nH]c(=O)[nH]c1=O | -16%
CCCCc1c(C)c2ccc(OC)c(/C(C)=N\O)c2oc1=O | 3%
Cc1ccc(C)c2[nH]c(=O)c(CCNC(=O)C(C)C)cc12 | -4%
CCn1cc(CNC(=O)CCc2ccc(OC)cc2)cn1 | 0%
NC(=O)c1c(NC(=O)Cc2cccs2)sc2c1CCC2 | -19%
Cn1c(CSCc2ccccc2Cl)nnc1SCC(=O)Nc1nccs1 | 18%
CCOc1ccc(CN(C(=O)c2ccco2)C2CCS(=O)(=O)C2)cc1 (centres undefined) | 23%
Cc1ccc(OCC(O)CN2CCN(c3ccccc3)CC2)cc1 (centres undefined) | 27%
CC(=O)Nc1nonc1-c1nc2ccccc2n1N(C(C)=O)C(C)=O | -17%
Nc1ccc(N=Nc2c(S(=O)(=O)O)cc3ccccc3c2S(=O)(=O)O)cc1 | 3%[5.75 µM]

Given as labelled records: entries from further up
CCn1cc(CNC(=O)CCc2ccc(OC)cc2)cn1
- AmpC inh no det = 0%
NC(=O)c1c(NC(=O)Cc2cccs2)sc2c1CCC2
- AmpC inh no det = -19%
Cn1c(CSCc2ccccc2Cl)nnc1SCC(=O)Nc1nccs1
- AmpC inh no det = 18%
CCOc1ccc(CN(C(=O)c2ccco2)C2CCS(=O)(=O)C2)cc1 (centres undefined)
- AmpC inh no det = 23%
